BJeLR lethal: BJeLR cell viability loss; inhibition, % (concentration not given with the values); BJeLR (HRASV12) viability, CellTiter-Glo ATP luminescence, 48 h; reference of the scale not given here; 300,000 tested, 0.17% active; AID 1554;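 active means replicate mean above 50%; inconclusive means above 50% but judged a plate artefact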;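 further: 50 nL library stock added to about 25 µL; numbers are from one replicate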
Bead autofluor: compound fluorescence in toxin protease inhibitor counterscreen; compound autofluorescence counterscreen, microsphere flow cytometry; hits give high values; fluorescence intensity (no concentration beside the values); 360,000 tested, 3.1% active; AID 624483;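 active means at least 3 SD above the mean of all compounds, about 16000 in these data; inconclusive means too few beads counted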;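 further: 100 nL of 1 mM stock went into each well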
Sa ugtP lethal: growth inhibition of S. aureus ugtP deletion strain | S. aureus RN4220 ugtP deletion, OD600 growth, 16 h; some inactives read as strong as hits | growth inhibition, % (test concentration not listed) | 330,000 tested, 0.54% active;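 active means z-score under -3 and OD600 up to 0.15 on both plates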;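 further: plate controls were untreated wells for no effect and antibiotic for full effect; wells of about 80 µL received 100 nL stock; the first replicate is given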
PrP 5UTR inh: inhibition of PrP 5' UTR reporter expression | 340,000 tested, 0.35% active | inhibition, % (concentration not given with the values) | cell-based PrP 5' UTR mRNA reporter, plate reader | AID 488862;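 active means every replicate at 50% or more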;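 further: 0 = median of the neutral control wells; tested in H4 reporter cells; numbers are from one replicate; inactives centre near -14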
Sa RN4220 lethal: S. aureus RN4220 growth inhibition. 330,000 tested, 0.33% active. inhibition, % (test concentration not listed). OD600, 16 h;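 active means z-score of -3 or lower and OD600 up to 0.18 on both plates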;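 further: plate controls were untreated cells for no effect and reference antibiotic for full effect; stock transfer was 100 nL into about 80 µL; one replicate is shown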
Mtb hypoxia rep: reduces hypoxia-regulated biosensor signal in M. tuberculosis. fluorescence inhibition, % (no concentration beside the values). M. tuberculosis hypoxia-regulated fluorescent reporter, fluorescence. 300,000 tested, 0.1% active;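 active means 35 to 45% if threefold the growth effect, above 45% if 1.5-fold the growth effect; inactive means the rest, general growth blockers included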;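 further: wells of about 50 µL received 100 nL stock; 0% = vehicle wells and 100% = reference inhibitor wells; whole bacteria with a GFP reporter of the hypoxia response; strong numbers were not always called active; many hits fall short of the cut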
Mtb hypoxia rep growth: second read-out of Mtb hypoxia rep, no call of its own (marks repeat the call); growth inhibition, %; measured here: M. tuberculosis growth (absorbance);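 0% = vehicle and 100% = reference antibiotic; read after six days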
An asterisk follows results filed as active; u = inconclusive; x = no result given.

SMILES	BJeLR lethal	Bead autofluor	Sa ugtP lethal	PrP 5UTR inh	Sa RN4220 lethal	Mtb hypoxia rep	Mtb hypoxia rep growth
CCOc1cccc(CN2CCC(n3nccc3NC(=O)c3ccc4c(c3)OCO4)CC2)c1	1	5381	-3	-22	0.5	-5	1
CCCCn1c(N)c(N(CCC(C)C)C(=O)c2ccc3ccccc3c2)c(=O)[nH]c1=O	x	4260	8	-13	6.8	4	-7
COc1cc(-c2c(C#N)c(N)nc3[nH]c(=S)[nH]c(=O)c23)ccc1O	-5	3665	5	-12	-0.2	10	2
Cc1ccc(S(=O)(=O)C2(C(=O)NCc3ccc4c(c3)OCO4)CC2)cc1	0	4515	6	-6	4.8	5	12
COC(=O)C(C)NC(=O)Nc1ccc(OC)cc1OC (configuration not stated)	x	x	-1	x	7.1	5	0
c1ccc(-c2cnc(-c3ccccc3)nn2)cc1	10	2987	18	-24	12	3	-2
CC(O)c1c(-c2ccccc2)nn(C)c1Cl (configuration not stated)	9	2057	4	-19	0.1	0	1
Nc1nc(NCc2ccccc2Cl)n(-c2ccccc2)n1	1	4098	11	-8	3.1	13	1
CCOC(=O)N/N=C/c1ccc(C)o1	1	10882	x	-15	x	x	x
CCCCn1c(N)c(N(CCC(C)C)C(=O)c2ccc3c(c2)OCO3)c(=O)[nH]c1=O	-3	4228	x	-2	x	x	x
O=C(NCc1ccco1)c1ccc2c(c1)N(Cc1ccccc1)C(=O)CS2	-3	25027*	29	-8	-2.0	-7	2
CC1CN(C(C)CO)C(=O)c2cccc(NS(=O)(=O)c3cccs3)c2OC1CN(C)Cc1ccc(C(F)(F)F)cc1 (configuration not stated)	x	x	1	x	7.1	12	2
COc1ccc2cc3cc(C(=O)N(C)C4CCCCC4)oc3nc2c1	7	5459	-5	-87	3.3	19	17
O=C(Nc1ccccc1C(=O)N1CCCCC1)c1cccs1	-2	5385	4	-16	2.4	14	5
O=C(CNc1ccc(F)cc1)c1ccccc1	-12	2437	-2	-32	-1.3	-5	6
Cc1ccc(SCCN2CCN(C)CC2)cc1	-3	2925	4	-2	1.6	-4	-8
CCCCNC(=O)CCn1nc(-c2ccccc2)c2ccccc2c1=O	2	3979	-1	-5	2.5	-4	-6
CC12C=CC(=O)C=C1CCC1C2C(=O)C[C@@]2(C)C1CCC2(O)C(=O)CO (some centres not stated)	6	6026	1	-13	8.6	-2	1
CC(C)C(=O)Nc1cccc(C(=O)NCc2ccc(S(N)(=O)=O)cc2)c1	12	18546*	4	-15	3.8	4	9
O=C1C(C=NCCCN2CCCC2=O)=C(O)c2ccccc21	8	19393*	1	-39	5.0	0	2
Cc1ccc(C)c(S(=O)(=O)NCC(=O)Nc2ccc3c(c2)OCO3)c1	1	4847	5	-2	1.5	13	-8
CN(CC(=O)NCc1cccnc1)S(=O)(=O)c1cc(Cl)ccc1Cl	1	u	1	3	2.0	-8	0
CCN(CC)CCCNC(=S)N(CCO)Cc1cc2cc3c(cc2[nH]c1=O)OCO3	-24	3113	3	7	0.4	13	5
Cc1nc(-c2ccccn2)nc(SCC(=O)c2ccc(F)cc2)c1Cl	-5	x	3	-14	2.9	2	7
COc1ccc(CSc2ncnc3sccc23)cc1F	25	3903	8	-26	71	-1	12

Exported comma-delimited: part of the list above
molecule,BJeLR lethal,Bead autofluor,Sa ugtP lethal,PrP 5UTR inh,Sa RN4220 lethal,Mtb hypoxia rep,Mtb hypoxia rep growth
CCOc1cccc(CN2CCC(n3nccc3NC(=O)c3ccc4c(c3)OCO4)CC2)c1,1,5381,-3,-22,0.5,-5,1
CCCCn1c(N)c(N(CCC(C)C)C(=O)c2ccc3ccccc3c2)c(=O)[nH]c1=O,x,4260,8,-13,6.8,4,-7
COc1cc(-c2c(C#N)c(N)nc3[nH]c(=S)[nH]c(=O)c23)ccc1O,-5,3665,5,-12,-0.2,10,2
Cc1ccc(S(=O)(=O)C2(C(=O)NCc3ccc4c(c3)OCO4)CC2)cc1,0,4515,6,-6,4.8,5,12
COC(=O)C(C)NC(=O)Nc1ccc(OC)cc1OC (configuration not stated),x,x,-1,x,7.1,5,0
c1ccc(-c2cnc(-c3ccccc3)nn2)cc1,10,2987,18,-24,12,3,-2
CC(O)c1c(-c2ccccc2)nn(C)c1Cl (configuration not stated),9,2057,4,-19,0.1,0,1
Nc1nc(NCc2ccccc2Cl)n(-c2ccccc2)n1,1,4098,11,-8,3.1,13,1
CCOC(=O)N/N=C/c1ccc(C)o1,1,10882,x,-15,x,x,x
CCCCn1c(N)c(N(CCC(C)C)C(=O)c2ccc3c(c2)OCO3)c(=O)[nH]c1=O,-3,4228,x,-2,x,x,x
O=C(NCc1ccco1)c1ccc2c(c1)N(Cc1ccccc1)C(=O)CS2,-3,25027*,29,-8,-2.0,-7,2
CC1CN(C(C)CO)C(=O)c2cccc(NS(=O)(=O)c3cccs3)c2OC1CN(C)Cc1ccc(C(F)(F)F)cc1 (configuration not stated),x,x,1,x,7.1,12,2
COc1ccc2cc3cc(C(=O)N(C)C4CCCCC4)oc3nc2c1,7,5459,-5,-87,3.3,19,17
O=C(Nc1ccccc1C(=O)N1CCCCC1)c1cccs1,-2,5385,4,-16,2.4,14,5
O=C(CNc1ccc(F)cc1)c1ccccc1,-12,2437,-2,-32,-1.3,-5,6
Cc1ccc(SCCN2CCN(C)CC2)cc1,-3,2925,4,-2,1.6,-4,-8
CCCCNC(=O)CCn1nc(-c2ccccc2)c2ccccc2c1=O,2,3979,-1,-5,2.5,-4,-6

(continued)
SMILES	BJeLR lethal	Bead autofluor	Sa ugtP lethal	PrP 5UTR inh	Sa RN4220 lethal	Mtb hypoxia rep	Mtb hypoxia rep growth
CC(C)(C)n1nnnc1C(c1cccc(C#N)c1)N1CCC(Cc2ccccc2)CC1 (configuration not stated)	3	8431	25	-15	-1.7	6	3
Cc1ccc(N2CC(C(=O)Nc3nnc(SCC(=O)Nc4nc(C)cs4)s3)CC2=O)cc1 (configuration not stated)	8	1993	x	-7	x	x	x
Cc1cc(C(=O)N/N=C/c2cccc([N+](=O)[O-])c2O)n[nH]1	3	2255	x	-8	x	x	x
COC(=O)[C@H]1[C@H](C(=O)OC)[C@@H](C(=O)OC)N(c2ccc(OC)cc2)[C@@H]1C(=O)OC	-3	2138	1	-28	1.3	13	2
O=C(NC1CCCC1)c1ccc(Cl)s1	-4	6425	10	-37	0.1	x	x
COc1ccc(N2CCN(C3CCCN(C(=O)CN4CCOC4=O)C3)CC2)cc1 (configuration not stated)	8	5233	2	-6	-0.5	3	3
Clc1ccc(OCCOCCOc2cccc3cccnc23)c(Br)c1	8	2519	-27	-4	8.6	-7	3
Cc1ccc(S(=O)(=O)c2nc(-c3ccc(F)cc3)oc2N2CCOCC2)cc1	-3	3990	7	-15	-4.4	4	-3
CCn1c(SCC(=O)NNC(=O)Cc2ccccc2)nnc1-c1ccncc1	2	4247	2	-11	3.7	15	4
CCOC(=O)c1ccc(S(=O)(=O)n2c(=O)oc3ccccc32)cc1	x	3771	10	-36	2.3	8	1
Cc1ccc(NC(=O)CNC(=O)OCc2ccccc2)cc1C	2	4267	0	-12	3.2	3	-14
CCC1Nc2ncnc(N3CCOCC3)c2N(Cc2ccccc2)C1=O (configuration not stated)	11	4020	8	-27	8.1	-6	7
CC1CCN(c2c(NCC3CCC(C(=O)N4CCCC(C)C4)CC3)c(=O)c2=O)CC1 (configuration not stated)	2	5947	7	-23	-0.5	6	11
COc1ccccc1CNC(=O)CC(NS(=O)(=O)c1ccc(C)cc1)c1ccco1 (configuration not stated)	-1	2588	-2	-15	0.1	x	x
Cc1ccc(NCC(O)Cn2cnc3c2c(=O)n(C)c(=O)n3C)cc1 (configuration not stated)	1	4665	10	-14	3.0	0	-1
CCc1nnc(NC(=O)CSc2nnc(C(C)NC(=O)c3ccccc3)n2C)s1 (configuration not stated)	11	5195	11	-4	1.3	-2	-5
Cc1ccc(C=NN2CCN(C3c4ccccc4-c4ccccc43)CC2)s1	x	x	-8	x	-1.8	-1	-6
COc1ccc(S(=O)(=O)N2CCc3ccccc32)cc1C(=O)N1CCN(C=O)CC1	x	x	2	-3	-0.2	11	-2
CC(=O)NC(=O)NC1CSCC1OC(C)=O (configuration not stated)	8	23409*	-3	-5	2.0	-4	0
CC(C)(C)NC(=O)NC(=O)COc1ccccn1	-10	4714	6	-8	-0.9	x	x
O=C(OC1CCOC1=O)c1ccccc1C(=O)c1ccc(Cl)c([N+](=O)[O-])c1 (configuration not stated)	x	4417	12	2	6.7	3	-1
COCc1cc(N2CCCCC2)nc(-c2ccccc2)n1	-7	4436	10	-12	6.1	9	3
O=C1SCCC1NS(=O)(=O)c1ccc([N+](=O)[O-])cc1 (configuration not stated)	-2	6819	10	-21	42	3	9
CC(/C=C/c1ccccc1)=NNC(=O)c1cc(C)nc2ccccc12	x	x	2	x	2.7	5	1
COc1ccc(NC(=O)C2CCCN2S(=O)(=O)c2ccc3c(c2)CCC(=O)N3)cc1 (configuration not stated)	-1	6164	9	-35	4.0	x	x

(more compounds)
SMILES	BJeLR lethal	Bead autofluor	Sa ugtP lethal	PrP 5UTR inh	Sa RN4220 lethal	Mtb hypoxia rep	Mtb hypoxia rep growth
CC(C)CC(=NO)c1cn(C)c2ccccc12	x	x	0	x	6.6	8	5
COc1cc(SC)ccc1C(=O)OCC(=O)NCC(C)C	1	4183	-1	1	1.1	-2	0
CCOC(=O)c1cccc(NC(=O)C2CCCN(S(=O)(=O)c3cnc[nH]3)C2)c1 (configuration not stated)	-3	3866	6	-3	0.1	x	x
CCN(CC)S(=O)(=O)c1ccc(NN=Cc2cccnc2)nc1	x	x	6	x	5.4	9	4
CCN(CC)S(=O)(=O)c1cccc(C(=O)N2CCCCC2)c1	-6	2963	1	-2	6.7	7	2
Cc1nn(CC(=O)Nc2ccccn2)c(=O)c2ccccc12	-5	3336	13	-7	7.8	4	-3
COc1ccc(C(=O)NN=C(C)CC(=O)N2CCN(C=O)CC2)cc1	x	x	0	x	0.6	9	-2
NCC12CC3CC(C1)CC(c1ccc(Cl)cc1)(C3)C2	4	4713	1	-5	0.2	14	11
Cc1ccc(OCCn2cc(C(=S)N3CCCC3)c3ccccc32)cc1C	20	4449	-7	21	8.3	16	8
C=CCn1c(O)c(N=NC(=S)Nc2ccccc2C)c2cc(S(=O)(=O)N3CCOCC3)ccc21	2	2741	-14	0	3.1	-7	-5
O=C1CC(=O)N(c2ccccc2F)C(=O)N1	-15	2992	6	-14	3.1	13	-4
CCc1ccc(NC(=O)Cn2nnc(C(=O)NCc3ccc(OC)cc3)c2N)cc1	-2	5647	5	-14	1.9	9	-7
O=c1cc(CO)oc(CN2CCC(Cc3ccccc3)CC2)c1O	6	4814	10	1	0.5	x	x
CC(NC(=O)c1nn(C)c2c1CS(=O)(=O)c1ccccc1-2)c1ccccc1 (configuration not stated)	-1	5712	2	-5	2.0	-3	6
O=C(COC(=O)c1ccccc1NC(=O)c1ccco1)NC1CC1	2	4580	5	-35	1.2	9	11
Cn1c(=O)[nH]c2nc[nH]c2c1=O	-7	5019	0	-62	9.0	8	4
O=C(CCCc1ccccc1)NCCc1ccc(F)cc1	1	3890	14	-28	-2.3	7	4
CCCn1nc2cc(C(=O)NCc3ccc(OC)cc3)ccc2c1OCC	8	4289	3	-8	6.6	1	0
CC(C)(C)OC(=O)N1CCCC(C(=O)Nc2cccc(C(=O)N3CCCC3)c2)C1 (configuration not stated)	x	3916	2	-16	7.9	3	4
Cc1ccc(S(=O)(=O)N2CCN(C(=O)COC(=O)C3CCC3)CC2)cc1	7	u	4	-17	2.1	3	-8
COC(=O)c1ccccc1NC(=O)Nc1cnccn1	1	u	4	-27	2.7	8	11
Cc1ccc([N+](=O)[O-])c(OCCN2CCc3ccccc3C2)c1	7	3156	4	-12	7.0	23	12
CC(C)(C)C(=O)ON=C1CCS(=O)(=O)c2sccc21	x	x	1	x	1.1	11	7
Cc1cc(C)c(C(=O)COC(=O)CCNS(=O)(=O)c2c(Cl)cccc2Cl)cc1C	1	2107	16	-5	13	12	-3
C/C(=N\NC(=O)CNC(=O)c1ccc(Br)cc1)c1ccco1	6	5341	x	-17	x	x	x
COc1ccc(C2Nc3ccccc3C(=O)N2c2ccc(C)cc2)cc1Cn1nnc2ccccc21 (configuration not stated)	2	8724	9	-75	-4.5	14	2
COC(=O)c1ccc(COC(=O)c2ccc(CS(=O)(=O)c3ccc(C)cc3)cc2)cc1	-5	3392	2	2	0.6	8	-2

Screening data from PubChem BioAssay.
